# Tg IFNy HTS = T. gondii growth inhibition under IFN-gamma; Toxoplasma gondii growth in IFN-gamma-treated host cells; hits give low values; reference of the scale not given here; AID 1259416; actives 3.8% (n = 69,000); activity change, negative = inhibition, %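 (about 20 µM by stock and volumes)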;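 active = below -70%; inconclusive = fit judged invalid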;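 note: host cells are HeLa cells infected with Toxoplasma gondii; parasite growth read as luciferase light; one replicate is shown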
# * marks the source's active call; other numbers are inactive results; i = inactive; ? = inconclusive.
SMILES,Tg IFNy HTS
CC(=O)OC1c2c(ccc3ccc(=O)oc23)OC(C)(C)C1OC(=O)CC(C)C (stereo not drawn),16
CCc1ccc(CN2C[C@H](N3CCOCC3)C3OCCCC32)o1 (stereo partly drawn),-29
Cc1ccccc1-c1noc(CCC(=O)N(C)Cc2n[nH]c3c2CCCC3)n1,-6
O=C(CCCc1ccccc1)N1CCCC1c1cccc(Cc2ccccc2)n1 (stereo not drawn),16
COc1ccc(-c2cc(C(F)(F)F)n3nc(-c4cccs4)cc3n2)cc1,-51
C[C@H]1CN([C@@H](C)CO)C(=O)CCCn2nncc2CO[C@H]1CN(C)C(=O)Nc1ccc(-c2cccs2)cc1,215
O=C(c1nc(-c2ccc(Cl)cc2)n2c1CCCCC2)N1CCN(c2ncccn2)CC1,14
COC(=O)c1cc(CN(C)Cc2nc(-c3cccnc3)no2)cs1,0
Cc1cccc(N2CCN(Cc3n[nH]c(=O)n3Cc3cccc(F)c3)CC2)c1C,66
CC(=O)N1CCC2(CC1)OC(=O)C(C)=C2C(=O)NCCCc1ccccc1,171
CC(c1cccc(-c2nccn2CCc2ccccn2)c1)N(C)C (stereo not drawn),-6
CCCC(=O)NCCc1sc(-c2ccc(Cl)cc2)nc1C,219
CC(=O)O[C@@H]1CC2C(C)(C)[C@H](O)CC[C@]2(C)C2CC[C@@]3(C)[C@H](c4ccoc4)OC(=O)C4OC43[C@@]21C (stereo partly drawn),-71*
Cn1cncc1-c1nccn1CCCN1CCOCC1,-8
CC(C)C1Cc2[nH]c(=O)c(C(=O)O)cc2CO1 (stereo not drawn),-1
CCN(CC)CC1CN(Cc2csc(C)n2)Cc2nccn2C1 (stereo not drawn),5
Cc1cccc(NC(=O)C(=O)NCCc2csc(-c3ccc(C(F)(F)F)cc3)n2)c1,137
O=C(NCCN1CCOC1=O)c1cccc2ccnn12,-4
COc1ccc(C#Cc2ccc3c(c2)[C@@H]2[C@@H](CCN2C(=O)C2CCOCC2)[C@@H](CO)N3)cc1,-2
COc1ccc(NC(=O)Cn2ncc3c(N4CCN(c5ccccn5)CC4)ncnc32)cc1,313
CCOCC1c2c(cnn2CC2CCOCC2)CCN1Cc1ccco1 (stereo not drawn),51
O=C(/C=C/c1ccc2c(c1)OCCCO2)c1ccc2ccccc2c1O,163
C=CCOc1ccccc1CN1CCC2(CC1)C(=O)N(Cc1cccc3ccccc13)C(=O)N2CC,-32
Cc1ccc(S(=O)(=O)N2CCC3(CC2)Nc2ccc(Cl)cc2-n2cccc23)cc1,-26
CC(C)(C)C(=O)N1CCC2(CC1)CC(Oc1ccccc1)CO2 (stereo not drawn),25

# In the list so far, 3 have a Cl atom.
SMILES,Tg IFNy HTS
O=C(c1nc(-c2ccc(Cl)cc2)n2c1CCCCC2)N1CCN(c2ncccn2)CC1,14
CCCC(=O)NCCc1sc(-c2ccc(Cl)cc2)nc1C,219
Cc1ccc(S(=O)(=O)N2CCC3(CC2)Nc2ccc(Cl)cc2-n2cccc23)cc1,-26

# Following part:
SMILES,Tg IFNy HTS
CO[C@@H]1CN(C)C(=O)c2cc(NC(=O)c3ccc(Oc4ccccc4)cc3)ccc2OC[C@@H](C)NC[C@@H]1C,-115*
COc1cc(CNC(=O)C2(C)CCN(C(=O)COc3ccc(F)cc3)CC2)cc(OC)c1,-10
c1ccc(COC[C@]23COC[C@H]2CN(c2ncccn2)C3)nc1,0
Cc1cc(C(=O)Nc2cccc3c2O[C@@H](CN(C)C)[C@@H](C)CN([C@H](C)CO)C3=O)n(C)n1,14
Cc1ccc(C(N)=O)c(N2CCCN(Cc3ccc(F)cc3)C(C(C)C)C2)n1 (stereo not drawn),10
COC(=O)c1ccc2c(c1)N(Cc1nc(-c3ccc(OC)cc3)oc1C)C(=O)c1ccccc1S2,78
Cc1cc(NC(=O)Cn2cncn2)n(-c2ccccc2)n1,1
CNc1nc(C2CCCCN2Cc2ccccc2C)nc2c1CCN(C(C)=O)C2 (stereo not drawn),-9
CC(C)c1cc(C(=O)N2CCCC3(CN(C)C(=O)O3)C2)n[nH]1 (stereo not drawn),2
COc1ccc(-c2nc(C)c(CCNS(=O)(=O)c3ccc(OC)c(C)c3)s2)cc1,i
Cc1cc(C(O)CN2CCN(c3ccccc3)CC2)c(C)s1 (stereo not drawn),22
COC(=O)c1[nH]c2ccc(F)cc2c1NC(=O)C1=COCCO1,13
CC(C)CN1CCC2(Cc3ccccc3NC2=O)C1 (stereo not drawn),75
Cc1ccc(S(=O)(=O)N2CC[C@@H]3[C@H]2c2cc(-c4ccccc4F)ccc2N(C)[C@H]3CO)cc1,-62
COCCN1CCC(Cn2cnc(-c3ccccc3)c2-c2cc(C)[nH]n2)C1 (stereo not drawn),-12
Cc1nc(-c2cccc(F)c2)sc1CCNC(=O)c1cccc(Br)c1,23
Cc1ccc2[nH]c3nc(C)cc(C)c3c(=O)c2c1,26
CCn1nc(C(=O)Nc2ccccc2CN2CCCC2)c2ccccc2c1=O,13
O=C(C1CC2(CCNCC2)CN1)N1CCN(Cc2ccccc2)CC1 (stereo not drawn),82
CC(=O)Nc1cccc(Oc2cc(C#N)c(C#N)cc2N2CCOCC2)c1,-29
COc1ccccc1CNC(=O)CCC1N=C2c3ccccc3N=C(SCC#N)N2C1=O (stereo not drawn),14
COCCNC(=O)C1CN(Cc2c(C)noc2C)Cc2ccnn2C1 (stereo not drawn),-1
CCN1C[C@]23CN(C(=O)c4ccn[nH]4)C[C@@H](C[C@H]2S1(=O)=O)O3,3
CCN1CCC2(CC1)OC(=O)C(C)=C2C(=O)NCCCN1CCN(c2ccccc2F)CC1,41
Cc1cccc(C(=O)N2CCCC3(CC(c4cnn(C)c4)CO3)C2)c1 (stereo not drawn),-3

# The list continues.
SMILES,Tg IFNy HTS
COc1ccc(-n2c(=O)c(C(=O)Nc3ccc(C)c(F)c3)c(O)c3cccnc32)cc1,112
CCOCC(=O)N1CCC(c2ccnc(-c3ccc4ncccc4c3)c2)C1 (stereo not drawn),26
CC[C@H]1C/C=C\C[C@@H](c2ccc(OC)cc2OC)NC(=O)[C@@H](C)CC(=O)N1,13
COc1cccc(S(=O)(=O)N2CCCCN3[C@H](C2)[C@@H](c2ccc(C#CCC(C)C)cc2)[C@@H]3CO)c1,-33
CC=Cc1ccc2n(c1=O)C[C@@H]1[C@@H](CO)[C@H](C(=O)N(C)C)N(C(=O)CC)[C@H]21 (mixture of isomers),4
Cc1nc(N(C)C/C=C/c2ccccc2)c2cnn(C)c2n1,-23
O=C1CCCN1C(=O)CCC(=O)N1CCCC1=O,-1
Cc1c(C(=O)N2CC(C)CC(C)C2)oc2ccc3c(c12)C(O)CC1(CCCCC1)O3 (stereo not drawn),?
C[C@H]1CCCCO[C@@H](CN(C)CC2CCCCC2)[C@@H](C)CN([C@@H](C)CO)C(=O)c2cc(NS(C)(=O)=O)ccc2O1,-55
C[C@@H]1CN([C@@H](C)CO)C(=O)CCCn2cc(nn2)CO[C@H]1CN(C)C(=O)Nc1cccc2ccccc12,392
COc1ccc(F)c(-c2ncccc2NC(=O)C(C)C)c1,6
COc1cccc(-c2nc(Cn3nnc(C(=O)Nc4cc(C)cc(C)c4)c3C)c(C)o2)c1OC,-105*
S=C(NN=C1CCCC1)NC1CC2CCC1C2 (stereo not drawn),-45
O=C(Nc1ccc(-c2nc(-c3ccccc3)co2)cc1)c1cccc(F)c1,11
CCc1ccccc1NC(=O)C(=O)NCCc1csc(-c2cccc(F)c2)n1,-50
CCOC(=O)[C@@H](NS(=O)(=O)c1cc(Cl)ccc1OC)C(C)C,19
CCOc1c(N2CCN(c3c(OCC)c(=O)c3=O)CC2)c(=O)c1=O,-12
CCc1ncc(C(=O)N2CC(c3cccnc3)C2)cn1,2
CCCNC(=O)N1CC2(CCN(C(=O)Nc3cccc(F)c3)CC2)c2c(n(C)c3cc(OC)ccc23)[C@H]1CO,-19
c1ccc(CCc2n[nH]c(COc3ccc4c(c3)OCO4)n2)cc1,0
Cc1ccsc1CNc1ccc(C(=O)NCC(O)CO)cc1 (stereo not drawn),13
CC1CCN(C(=O)COc2ccccc2-c2[nH]cnc2-c2ccccc2)CC1,-26
CCN1CCN(C(=O)CN(c2ccc(Cl)cc2)S(C)(=O)=O)CC1,-40
CS(=O)(=O)N1CCOC(CNC(=O)c2nc3ccccc3s2)C1 (stereo not drawn),0
CCC(C)N(Cc1cccc(Cl)c1)C(=O)c1ccc(C#CC(C)(C)O)o1 (stereo not drawn),7

# Looked up by compound from the entries so far (three):
SMILES,Tg IFNy HTS
CC=Cc1ccc2n(c1=O)C[C@@H]1[C@@H](CO)[C@H](C(=O)N(C)C)N(C(=O)CC)[C@H]21 (mixture of isomers),4
CCOCC(=O)N1CCC(c2ccnc(-c3ccc4ncccc4c3)c2)C1 (stereo not drawn),26
COc1ccc(F)c(-c2ncccc2NC(=O)C(C)C)c1,6

# Exported bar-delimited: entries from further up.
molecule | Tg IFNy HTS
O=C(Nc1ccc(-c2nc(-c3ccccc3)co2)cc1)c1cccc(F)c1 | 11
CCc1ccccc1NC(=O)C(=O)NCCc1csc(-c2cccc(F)c2)n1 | -50
CCOC(=O)[C@@H](NS(=O)(=O)c1cc(Cl)ccc1OC)C(C)C | 19
CCOc1c(N2CCN(c3c(OCC)c(=O)c3=O)CC2)c(=O)c1=O | -12

# Remaining list, next part
SMILES,Tg IFNy HTS
CO[C@H]1CN(C(=O)CCc2nc3ccccc3[nH]2)CC[C@H]1N,-4
O=C(NCc1cccnc1-n1ccnc1)c1cnc(-c2cccnc2)nc1,-8
COc1ccc(Cc2ncc3c(n2)CN(Cc2cc4n(n2)CCNC4)C3)cc1,6
COC(=O)C[C@@H]1CC[C@H]2[C@@H](COC[C@H](O)CN2S(=O)(=O)c2ccccc2OC)O1,-3
CCN1c2ccccc2C(=O)NC12CCN(C(=O)NCc1cccc(F)c1)CC2,86
Cc1noc(C)c1CN1CCC2(CC(=O)N(c3cccc(F)c3)C2)C1 (stereo not drawn),3
O=C(c1cccs1)N1CCC(n2nc(-c3cccs3)ccc2=O)CC1,-30
CS(=O)(=O)N1CCOC2CCN(C(=O)Cc3cccnc3)CCC21 (stereo not drawn),-24
Cc1cnc(C)c(-c2cc(O)c3c(c2)CN(Cc2c(C)n[nH]c2C)CCO3)n1,52
COCCN1C(=O)CO[C@H]2CN(C(=O)C3CCOCC3)C[C@@H]21,-3
CCOc1cccc(-c2noc(-c3c(O)c4cccc(Cl)c4n(C)c3=O)n2)c1,67
C=CCN(CC=C)C(=O)CN1CC=C(n2c(=O)[nH]c3ccccc32)CC1,1
CC(C)CN(Cc1cccs1)C(=O)c1cc2n(n1)CCCN(C)C2,-3
CSc1nc(N)n(-c2c(Cl)cc(C(F)(F)F)cc2Cl)n1,-3
NC(=O)CSc1nnc(-c2ccc(S(=O)(=O)N3CCCC3)cc2)o1,3
CC(NC(=O)Cc1ccccn1)c1cnn(-c2ccccc2F)c1 (stereo not drawn),6
Cn1nc(CC2CCN(C(=O)Cn3cncn3)CC2)n(-c2ccccc2)c1=O,8
COCCCNC(=O)Cn1c(=O)c(S(=O)(=O)c2ccccc2)cc2ccccc21,13
CSc1nn2c(C)cc(C)nc2c1C#N,44
CCN(C/C=C/c1ccccc1)C(=O)CCc1cn2ccccc2n1,0
CN(C)CC(=O)N1C[C@@H]2N[C@H](C1)C2c1ccc(C2=CCCCC2)cc1 (stereo partly drawn),-65
COCC1CN(Cc2csc(C)n2)Cc2ccnn2C1 (stereo not drawn),-49
Cc1cccc(CNC2=NCCNC23CCN(S(=O)(=O)c2ccc4c(c2)CCCC4)CC3)c1,-64
N#Cc1ccc(C(=O)N2CCC(N3CCOCC3)CC2C(=O)O)cc1 (stereo not drawn),-41
CCNC(=O)c1nc(-c2ccc(Cl)cc2)n2c1CCCCC2,-7

# Next section.
SMILES,Tg IFNy HTS
Cc1ccc(C)c(NC(=O)C(=O)NCCc2sc(-c3ccc(F)cc3)nc2C)c1,123
COc1ccc(-c2nc(C)c(CCNS(=O)(=O)c3cccs3)s2)cc1OC,-16
Cc1ccc(C(=O)COC(=O)c2cccc(N3C(=O)c4c(C)nc5ccccc5c4C3=O)c2)cc1C,141
Cc1cc(C(F)(F)F)nc(CCn2ccnc2-c2nc[nH]c2C)n1,-3
C/C(=C\c1ccco1)CN1CCN(c2nc3cc(C)ccc3o2)CC1,21
COCC1(C(=O)N(C)Cc2cn[nH]c2-c2ccc(F)cc2)CCC1,32
O=S(=O)(c1ccccc1)N1CCC2(CC1)Nc1ccccc1-n1cccc12,11
COCC#Cc1ccc([C@@H]2[C@H]3CN(C(=O)c4ccncc4)CC(=O)N3[C@H]2CO)cc1,17
COCc1cn(CC[C@@H]2CC[C@@H](NC(=O)Nc3c(C)noc3C)[C@H](CO)O2)nn1,-40
CC(C)(O)C#Cc1cccc(-c2nc(C(=O)N[C@@H]3CCN(Cc4ccccc4)C3)cc3c2[C@H](CCO)N(S(=O)C(C)(C)C)C3)c1 (stereo partly drawn),-9
CCOC(=O)c1nc(NCCOC)c2ccccc2n1,104
O=C(NC1CC1)C1CN(Cc2cc3ccccc3[nH]2)CCN1 (stereo not drawn),11
COc1ccc(-c2nc(Cn3nnc(-c4nc(-c5cccnc5)no4)c3C)c(C)o2)cc1,-7
COc1cccc2ccc(N3CCC(O)(c4ccc(C)cn4)CC3)nc12,-45
O=C(C[C@H]1OC[C@H]2CN(Cc3cccc(F)c3)CC[C@@H]21)N1CCCO1,-1
COc1ccc2c(c1)OCC(Cc1ccc(OC)c(OC(C)=O)c1)C2=O (stereo not drawn),-84*
O=C(CN1C(=O)CCc2cc(Br)ccc21)NCc1ccc(F)cc1,-29
C=CCc1cc(-c2nccn2C(C)Cn2cncn2)ccc1O (stereo not drawn),8
Cc1ccsc1C(=O)N1CCC2(CC1)NC(=O)CC2c1ccccc1 (stereo not drawn),5

# This is a subset (hit frequency here may not be typical).
